Assay outcomes from PubChem BioAssay.
pPAFAH inh – pPAFAH enzyme inhibitors, primary screen, biochemical, fluorescence polarization, human | actives 1.5% (n = 330,000) | recombinant pPAFAH, FP-rhodamine probe fluorescence polarization | Platelet-activating factor acetylhydrolase (Homo sapiens), Q13093 | inhibition, % at 3.39 µM;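 active = inhibition above the mean inhibition across the screen plus 3 SD, cut at about 25% in these data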;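 also: inhibitors block binding of the rhodamine activity-based probe so polarization drops; 0% = enzyme with DMSO and 100% = wells lacking pPAFAH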
PREPL inh – PREPL enzyme inhibitors, primary screen, biochemical, fluorescence polarization; Prolyl endopeptidase-like (Homo sapiens), Q4J6C6; actives 0.68% (n = 320,000); inhibition, % at 5.96 µM; recombinant PREPL, fluorescence polarization activity-based probe; in the data active = inhibition above about 43%;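 also: 0% = enzyme with DMSO and 100% = wells lacking enzyme; many of its hits are not listed in these tables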
Target sequence (Q4J6C6 whole entry, looked up): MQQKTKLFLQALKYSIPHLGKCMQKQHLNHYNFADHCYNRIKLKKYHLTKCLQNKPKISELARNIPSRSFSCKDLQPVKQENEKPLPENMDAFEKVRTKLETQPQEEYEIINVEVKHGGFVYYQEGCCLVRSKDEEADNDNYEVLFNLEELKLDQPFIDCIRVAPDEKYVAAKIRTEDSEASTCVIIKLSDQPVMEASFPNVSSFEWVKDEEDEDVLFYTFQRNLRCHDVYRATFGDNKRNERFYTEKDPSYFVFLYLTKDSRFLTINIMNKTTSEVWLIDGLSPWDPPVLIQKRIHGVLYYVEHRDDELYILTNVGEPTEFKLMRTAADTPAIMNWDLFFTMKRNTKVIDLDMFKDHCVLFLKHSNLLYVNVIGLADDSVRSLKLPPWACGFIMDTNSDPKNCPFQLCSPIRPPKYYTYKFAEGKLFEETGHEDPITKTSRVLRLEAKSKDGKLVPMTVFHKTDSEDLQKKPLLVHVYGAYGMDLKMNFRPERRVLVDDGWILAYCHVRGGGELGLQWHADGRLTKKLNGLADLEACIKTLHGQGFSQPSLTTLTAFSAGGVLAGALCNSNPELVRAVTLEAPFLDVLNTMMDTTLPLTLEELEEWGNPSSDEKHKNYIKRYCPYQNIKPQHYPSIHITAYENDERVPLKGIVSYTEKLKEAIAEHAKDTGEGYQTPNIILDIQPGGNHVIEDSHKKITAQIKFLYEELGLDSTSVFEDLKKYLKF
LYPLA1 counter – LYPLA1 inhibitors, primary screen, counter-screen for PME1 inhibitor project, biochemical, fluorescence polarization, FP-Rh probe ABPP; actives 0.16% (n = 320,000); AID 2174, 2009; inhibition, % at 5.9 µM; recombinant LYPLA1;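 active = inhibition above the mean of all tested compounds plus 3 SD, set per campaign, cut at about 14% in these data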;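 also: inhibitors block serine hydrolase probe labeling of LYPLA1 so polarization falls; 0% = enzyme with DMSO and 100% = wells lacking LYPLA1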
Target sequence (O75608 whole entry, looked up): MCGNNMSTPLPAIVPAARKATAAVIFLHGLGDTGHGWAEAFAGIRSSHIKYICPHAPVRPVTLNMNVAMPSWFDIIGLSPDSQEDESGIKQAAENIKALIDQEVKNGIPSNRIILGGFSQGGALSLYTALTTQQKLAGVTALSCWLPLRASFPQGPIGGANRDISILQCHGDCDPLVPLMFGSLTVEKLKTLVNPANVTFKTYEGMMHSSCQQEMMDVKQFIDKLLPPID
PAFAH2 FP inh – PAFAH2 enzyme inhibitors, primary screen, biochemical, fluorescence polarization, human; inhibition, % at 3.39 µM; recombinant PAFAH2, FP-rhodamine activity probe; actives 0.99% (n = 340,000); Platelet-activating factor acetylhydrolase 2, cytoplasmic (Homo sapiens), Q99487;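 active = inhibition above the mean over all tested compounds plus 3 SD, cut at about 30% in these data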;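 also: inhibitors block probe labeling of enzyme so polarization drops; 0% = enzyme with DMSO and 100% = wells lacking PAFAH2 protein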
LYPLA2 inh – LYPLA2 inhibitors, primary screen, counter-screen for PME1 inhibitor project, biochemical, fluorescence polarization, FP-Rh probe ABPP; Acyl-protein thioesterase 2 (Homo sapiens), O95372; recombinant LYPLA2; inhibition, % at 5.9 µM; actives 0.38% (n = 320,000);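 active = inhibition above the screen-wide mean plus 3 SD, limit set per campaign, cut at about 26% in these data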;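 also: 0% = LYPLA2 with DMSO and 100% = wells lacking LYPLA2 enzyme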
PAD4 FP inh – human PAD4 inhibitors, primary screen, biochemical, fluorescence polarization, 1536-well format; inhibition, % at 6.36 µM; actives 0.41% (n = 330,000); recombinant PAD4, RCA probe fluorescence polarization; Protein-arginine deiminase type-4 (Homo sapiens), Q9UM07; AID 485272, 2010;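 active = percent inhibition above a cutoff equal to the mean of all tested compounds plus 3 SD, cut at about 15% in these data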;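 also: 0% = PAD4 with RCA probe and DMSO and 100% = probe without PAD4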
PAFAH1B2 FP inh – PAFAH1B2 enzyme inhibitors, primary screen, biochemical, fluorescence polarization, human. Platelet-activating factor acetylhydrolase IB subunit alpha2 (Homo sapiens), P68402. recombinant PAFAH1B2, FP-rhodamine activity probe. inhibition, % at 3.39 µM. actives 1.2% (n = 340,000);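 active = inhibition above the mean of all tested compounds plus 3 SD, cut at about 24% in these data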;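 also: 0% = enzyme with DMSO and 100% = wells lacking PAFAH1B2; many of its hits are not listed in these tables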
PAFAH1B3 FP inh – PAFAH1B3 enzyme inhibitors, primary screen, biochemical, fluorescence polarization, human; Platelet-activating factor acetylhydrolase IB subunit alpha1 (Homo sapiens), Q15102; recombinant PAFAH1B3, FP-rhodamine probe; inhibition, % at 3.39 µM; actives 0.28% (n = 340,000); AID 492972, 2010;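 active = inhibition above the screen-wide average of all tested compounds plus 3 SD, cut at about 25% in these data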;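 also: 0% = enzyme with DMSO only and 100% = wells lacking PAFAH1B3 protein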
Starred values were filed as active, the others as inactive; . = no result given. Some of the compounds tested (hit frequency here may not be typical).

SMILES	pPAFAH inh	PREPL inh	LYPLA1 counter	PAFAH2 FP inh	LYPLA2 inh	PAD4 FP inh	PAFAH1B2 FP inh	PAFAH1B3 FP inh
Cc1ccc(S(=O)(=O)N2CCOCC2)cc1NC(=O)Cn1ccsc1=N	0	-1	3	-1	7	-3	-1	4
Cc1occc1-c1nnc(SCC(=O)N2CCc3ccccc32)o1	7	11	-2	-1	0	4	1	-1
Cc1cc(N=Cc2c(O)ccc3ccccc23)no1	-6	-2	-1	-2	0	-4	-1	2
O=C(CCl)N(CCCNC(=O)C(F)(F)F)c1ccc([N+](=O)[O-])cc1	-3	8	7	2	7	1	5	-2
N#C/C(=C/c1ccccc1OCc1ccc(F)cc1)c1ccc(C(=O)O)cc1	3	1	0	0	10	1	10	8
C=CCOc1ccccc1CN1CCC(n2nccc2NC(=O)c2ccccc2)CC1	3	10	-2	10	1	5	2	1
O=C(c1cccc(Cl)c1)c1nn(-c2ccccc2)c(=O)cc1C(F)(F)F	4	10	-1	25	-2	2	4	10
Cc1ccc(N2C(=O)C(Cl)=C(N3CCCCCC3)C2=O)cc1	4	3	-2	4	4	1	3	-1
Cc1cc(C(=O)CCl)c(C)n1CC1COc2ccccc2O1 (stereo not given)	2	15	0	2	-1	1	6	5
N#CC(=Cc1ccc(O)cc1)C(N)=C(C#N)C#N	23	1	-4	4	-6	-3	3	-3
COc1ccc(C(=O)CSc2n[nH]c(N)n2)cc1	-1	-4	-2	2	-13	0	5	0
CC1CCC2(CC1)NC(=O)N(NC(=O)CCl)C2=O (stereo not given)	8	0	1	8	-3	-1	5	0
CCn1c(SCC(=O)Nc2cc3oc4ccccc4c3cc2OC)nnc1-c1cccs1	7	19	-4	-2	-7	0	-2	2
Nc1c(C(=O)NCCN2CCOCC2)c2nc3ccccc3nc2n1CCc1ccccc1	4	37	5	-5	3	-2	5	2
COc1ccc(-c2nc(C#N)c(NCCc3ccccc3)o2)cc1	9	22	2	6	1	3	9	-5
O=C(OCC(=O)c1ccc(S(=O)(=O)N2CCCC2)cc1)C1=COCCO1	0	10	-1	-8	-1	-3	4	4
COc1ccccc1/C=N/Nc1cc(N(C)C)nc(N(C)C)n1	12	13	5	1	7	-1	1	2
Cc1cc(C)nc(N2N=C(c3ccccc3)CC2=O)n1	4	1	0	7	4	-7	2	9
FC(F)(F)c1cc(-c2ccco2)nc(-n2nc(C(F)(F)F)cc2C2CC2)n1	-1	10	0	-13	-1	-2	-8	10
CC(=O)Nc1ccc(S(=O)(=O)NCCSCc2c(Cl)cccc2Cl)cc1	0	-33	-7	-2	-3	0	5	17
Cc1ccc(Nc2nc(N)nc(CSc3nccn3C)n2)cc1	-2	9	-1	-1	6	1	2	4
Cc1ccc(C)c(C(=O)CSc2n[nH]c(C)n2)c1	1	6	0	-3	-1	-5	5	2
COc1ccc(CNS(=O)(=O)c2ccc(NC(=O)N3CCCCC3)cc2)cc1	2	7	1	-2	-3	-1	-6	9
ClCc1nc2ccccc2c2ccccc12	8	6	-5	-9	-1	2	4	5
O=C(COc1ccc(Cl)cc1)Nc1cccc(S(=O)(=O)NC2=NCCCCC2)c1	2	35	1	4	3	4	17	2

Next section, overlapping the part above by two compounds.
SMILES	pPAFAH inh	PREPL inh	LYPLA1 counter	PAFAH2 FP inh	LYPLA2 inh	PAD4 FP inh	PAFAH1B2 FP inh	PAFAH1B3 FP inh
ClCc1nc2ccccc2c2ccccc12	8	6	-5	-9	-1	2	4	5
O=C(COc1ccc(Cl)cc1)Nc1cccc(S(=O)(=O)NC2=NCCCCC2)c1	2	35	1	4	3	4	17	2
CCc1ccc(C(=O)COC(=O)c2ccc(Cl)nc2)cc1	2	-6	0	.	12	2	.	.
CCSc1nnc(NC(=O)CSc2nc3c(c(=O)n2-c2ccccc2OC)SCC3)s1	9	15	2	3	9	-4	-2	6
COc1cccc(CNC(=O)CCl)c1	-2	-9	-7	5	1	-2	1	9
CCOC(=O)c1ccccc1NC(=O)CSc1nc2ccncc2[nH]1	-1	0	0	1	-4	-4	-4	-1
Nn1c(SCC(=O)Nc2ccc(OC(F)F)cc2)nnc(Cc2ccccc2)c1=O	3	0	0	6	1	3	3	6
Cc1ccc2cc(CCl)c(Cl)nc2c1	-4	-3	-4	-5	6	1	4	3
CCCC(O)(CCC)C(=O)NN(C(=O)CCl)c1ccccc1	-1	6	0	2	2	7	8	2
O=C(Nc1nc2c(s1)COc1ccccc1-2)c1cccs1	5	19	-5	-1	5	1	6	7
O=S(=O)(NC1CCCC1)c1cccc(S(=O)(=O)N2CCC(n3nnc4ccccc43)CC2)c1	19	-11	-1	3	2	-5	2	2
CCOc1ccc(S(=O)(=O)NCCC(=O)OCN2C(=O)c3ccccc3C2=O)cc1	13	4	2	-5	2	-1	5	1
CCc1ccc2c(COn3nnc4ccc(S(=O)(=O)N(C)C)cc43)cc(=O)oc2c1	4	29	-1	-7	-3	3	1	11
COc1ccc(C(=O)CSc2nnc(-c3ccco3)o2)cc1	-5	8	-4	2	5	3	1	12
CC(C)(C)SC(=O)CC1NS(=O)(=O)OCC1NC(=O)OCC(Cl)(Cl)Cl (stereo not given)	-5	-1	-3	49*	-8	-1	4	5
Cc1cc2[nH]c(=O)c(=O)[nH]c2cc1S(=O)(=O)Nc1cccc(Cl)c1	2	22	8	3	7	-3	2	5
CCOC(=O)c1c(NC(=O)CSc2nnc(CNc3ccc(Cl)cc3)o2)sc(C)c1C	-1	3	1	-9	-4	-2	1	7
CCN(CC)c1ccc2c(Cl)cc(=O)oc2c1	2	4	-1	.	-7	7	.	.
Cc1ccc(-c2nnn(CC(=O)N(CC(=O)NCc3ccccc3)c3cccc(C)c3C)n2)o1	8	-7	-2	5	-2	-2	0	11
Cc1ccc(NS(=O)(=O)c2ccc3c(c2)NC(=O)CCS3)cc1F	12	23	1	4	1	-2	10	-3
CCOC(=O)C1=C(C)N[C@@]2(O)c3ccccc3C(=O)[C@@]12O	7	5	2	-4	7	-3	1	0
Cc1nc(SCC(=O)c2ccc(F)cc2)n[nH]1	-2	8	0	3	12	-4	-2	7
O=C(N/N=C/c1ccc(-c2ccccc2[N+](=O)[O-])o1)c1cncc(Br)c1	8	19	-2	6	4	-1	-3	6
O=[N+]([O-])c1cc(C=Nc2cccc3c(O)cccc23)ccc1Cl	25*	40	-3	.	3	7	.	.
CCOc1ccc(NC2=C(Cl)C(=O)N(Cc3ccccc3)C2=O)cc1	-5	13	-2	-2	0	1	3	0
CCOC(=O)c1ccccc1NC(=O)CSc1nc(N)cc(=O)[nH]1	7	9	-4	0	-1	-4	2	10
Cc1cc(C)c2c(NC(=O)CCl)nn(C)c2n1	-3	-6	-1	1	-2	0	7	3

Filtered by structure: those above with a cyano group (3)
SMILES	pPAFAH inh	PREPL inh	LYPLA1 counter	PAFAH2 FP inh	LYPLA2 inh	PAD4 FP inh	PAFAH1B2 FP inh	PAFAH1B3 FP inh
N#C/C(=C/c1ccccc1OCc1ccc(F)cc1)c1ccc(C(=O)O)cc1	3	1	0	0	10	1	10	8
N#CC(=Cc1ccc(O)cc1)C(N)=C(C#N)C#N	23	1	-4	4	-6	-3	3	-3
COc1ccc(-c2nc(C#N)c(NCCc3ccccc3)o2)cc1	9	22	2	6	1	3	9	-5

Next compounds follow:
SMILES	pPAFAH inh	PREPL inh	LYPLA1 counter	PAFAH2 FP inh	LYPLA2 inh	PAD4 FP inh	PAFAH1B2 FP inh	PAFAH1B3 FP inh
CCc1nnc(NC(=O)CSc2ncnc3c2cnn3-c2ccc(OC)cc2)s1	4	12	-3	9	-1	2	10	8
Nc1cc(=O)[nH]c(SCC(=O)Nc2ccccc2Sc2ccc(Cl)cc2)n1	4	2	1	2	0	5	3	1
COC(=O)c1cc(S(=O)(=O)n2nc(C)c(Br)c2C)c(Cl)cc1Cl	2	-1	-1	1	-3	-1	0	1
Cc1ccc(-c2csc(N3CCC(NS(=O)(=O)c4ccc5c(c4)OCCO5)CC3)n2)cc1	6	11	-10	-5	-6	4	-3	4
CC(C)CC(NC(=O)CCl)c1ccccc1 (stereo not given)	0	2	0	1	1	6	5	8
Cc1c(Cc2ccccc2)c(=O)oc2cc(OCC(=O)NC(Cc3ccc(Cl)cc3)C(=O)O)ccc12 (stereo not given)	14	5	4	4	22	2	5	8
COc1ccc(CNc2oc(COc3ccc(Cl)cc3)nc2C#N)cc1	-4	4	-9	-6	-16	-2	28*	-4
Cn1c(=NC(=O)CCl)sc2ccccc21	3	10	2	-1	3	2	-2	13
COC(=O)c1c(CCl)noc1C(=O)NCC1CCCO1 (stereo not given)	4	2	-3	0	0	3	3	-1
CC1=NN(c2nc(-c3ccc(F)cc3)cs2)C(=O)C1	30*	9	-3	14	1	-5	5	4
C[C@H](NC(=O)OC(C)(C)C)c1nnc(SCC(=O)c2ccc(Cl)cc2)o1	3	9	2	5	6	1	8	1
Cc1ccc(NS(=O)(=O)c2ccc3c(c2)NC(=O)CO3)cc1Cl	17	-4	-3	3	0	-2	12	4
Cc1ccc(Cl)c(NC(=O)CCl)c1Cl	-1	3	-3	5	-3	-7	7	10
CCOC(=O)C(CSCC(=O)c1ccc(Cl)cc1)NC(=O)OC(C)(C)C (stereo not given)	5	11	4	2	4	-1	16	-1
O=C(CN1CCC(NC(=O)Nc2ccc(F)cc2)CC1)Nc1ccccc1[N+](=O)[O-]	4	2	-2	-3	-2	-1	0	7
O=C(O)c1cccc(NS(=O)(=O)/C=C/c2ccccc2)c1	3	-2	1	-2	11	-3	9	-4
O=C(CSc1nnc(CNC(=O)c2cccs2)o1)c1ccc(Cl)cc1	1	-16	0	-4	-3	4	7	-3
Cc1ccc(NS(=O)(=O)c2cc(OCC(N)=O)c(C)cc2Cl)cc1	-6	10	3	1	6	-3	5	5
Cc1ccc(NC(=O)COC(=O)c2cc(Cl)ccc2[N+](=O)[O-])cc1	4	8	4	56*	3	-5	5	3
CC(C)n1nnnc1SCC(=O)NNC(=O)C1CCCCC1	-1	-11	-1	6	3	-3	0	-4
CC(C)[C@H]1COCCS(=O)(=O)N1Cc1ccccc1F	-3	-6	-2	-2	-2	0	7	1
Nc1c(C(=O)NCCN2CCOCC2)c2nc3ccccc3nc2n1CCc1ccccc1F	8	37	7	11	-2	-2	4	10
Cc1cc(C)nc(-n2nc(C)cc2NC(=O)CN2CCC(C)CC2)n1	11	21	1	6	10	0	0	5
Nc1cc(=O)[nH]c(SCC(=O)Nc2nnc(-c3ccccc3)s2)n1	4	4	-4	9	-1	-1	6	6
COC(=O)C(CSCc1ccccc1)NC(=O)CSc1nc(N)cc(=O)[nH]1 (stereo not given)	-3	8	-1	-2	3	0	7	1

Only PAD4 FP inh and PREPL inh, for 7 of the compounds above:
compound	PAD4 FP inh	PREPL inh
COC(=O)c1c(CCl)noc1C(=O)NCC1CCCO1 (stereo not given)	3	2
CC1=NN(c2nc(-c3ccc(F)cc3)cs2)C(=O)C1	-5	9
C[C@H](NC(=O)OC(C)(C)C)c1nnc(SCC(=O)c2ccc(Cl)cc2)o1	1	9
Cc1ccc(NS(=O)(=O)c2ccc3c(c2)NC(=O)CO3)cc1Cl	-2	-4
Cc1ccc(Cl)c(NC(=O)CCl)c1Cl	-7	3
CCOC(=O)C(CSCC(=O)c1ccc(Cl)cc1)NC(=O)OC(C)(C)C (stereo not given)	-1	11
O=C(CN1CCC(NC(=O)Nc2ccc(F)cc2)CC1)Nc1ccccc1[N+](=O)[O-]	-1	2
